Vif A3G: HIV-1 Vif–A3G interaction blockers – biochemical, TR-FRET, GST-Vif 1-94, biotin-A3G peptide, dose response retest, primary screen (AID 1117319); TR-FRET GST-Vif / biotin-A3G peptide binding; higher % means a stronger effect; test concentration not given here; strong numbers were not always called active; inhibition, %; hits with a dose series show IC50 in µM; actives 0.57% (n = 260,000);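 active = above the screen mean plus three standard deviations and confirmed in dose response; inconclusive = results disagree or hit not tested in dose response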;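 also: Vif residues 1-94 fused to GST binding biotinylated APOBEC3G peptide 110-148; 0% = full assay without inhibitor and 100% = GST in place of GST-Vif; retest series ran down from 100 µM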
MLL AF4-AF9 inh: inhibitors of human MLL-AF4/AF9 interaction | P42568 | AID 651704 | AlphaScreen, biotin-AF4 peptide binding to FLAG-AF9 | actives 0.47% (n = 350,000) | inhibition, % at 10 µM;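 active = every replicate reaching a set inhibition limit, whatever the replicate mean, cut at about 25% in these data; inconclusive = mean inhibition reaches that limit but some replicates miss it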;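 also: 0% = plate neutral control median and 100% = total signal loss; the record names both 10 and 1 µM as test concentration; the first replicate is given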
Target sequence (P42568 whole entry, looked up): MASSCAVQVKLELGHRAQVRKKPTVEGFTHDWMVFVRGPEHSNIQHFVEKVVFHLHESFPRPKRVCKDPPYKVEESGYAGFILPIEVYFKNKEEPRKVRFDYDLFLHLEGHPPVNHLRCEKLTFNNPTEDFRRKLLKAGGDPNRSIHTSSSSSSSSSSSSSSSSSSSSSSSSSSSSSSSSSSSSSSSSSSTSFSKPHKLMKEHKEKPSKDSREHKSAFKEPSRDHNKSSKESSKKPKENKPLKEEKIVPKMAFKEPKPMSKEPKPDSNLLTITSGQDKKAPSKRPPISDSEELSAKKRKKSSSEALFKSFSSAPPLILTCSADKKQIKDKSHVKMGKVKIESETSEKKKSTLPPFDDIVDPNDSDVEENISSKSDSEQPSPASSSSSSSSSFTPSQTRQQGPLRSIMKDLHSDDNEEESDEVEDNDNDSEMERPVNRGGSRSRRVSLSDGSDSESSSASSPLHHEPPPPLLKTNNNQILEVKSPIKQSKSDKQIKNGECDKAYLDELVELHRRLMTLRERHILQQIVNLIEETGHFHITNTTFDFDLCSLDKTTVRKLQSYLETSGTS
Ecoli rRNA inh: inhibitors of bacterial rRNA selective over humanized ribosomes. GFP signal change (wild-type ribosome), % (test concentration not listed). E. coli WT GFP vs humanized-ribosome RFP mutants, fluorescence, 24 h; stronger effect = lower value; DMSO median 0, no signal -100. actives 1.6% (n = 350,000). AID 720706;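 active = significant combined selectivity score with lowered wild-type GFP, culture density cut under 30%, mutant RFP and density less affected; inactive = any of these conditions unmet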; also: one replicate is shown; some compounds called inactive have numbers as strong as hits
ALR inh: human ALR oxidase inhibition via reduced H2O2; P55789; purified ALR, DTT oxidation, H2O2 HRP-luminol luminescence; inhibition, % (test concentration not listed); actives 3.8% (n = 290,000);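 active = mean and each replicate at 75% or more; inconclusive = only one of the two met; inactive = neither met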;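 also: stock transfer was 7.5 nL into about 7.5 µL; 0% = neutral wells and 100% = wells with inactivated enzyme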
Target sequence (P55789 whole entry, looked up): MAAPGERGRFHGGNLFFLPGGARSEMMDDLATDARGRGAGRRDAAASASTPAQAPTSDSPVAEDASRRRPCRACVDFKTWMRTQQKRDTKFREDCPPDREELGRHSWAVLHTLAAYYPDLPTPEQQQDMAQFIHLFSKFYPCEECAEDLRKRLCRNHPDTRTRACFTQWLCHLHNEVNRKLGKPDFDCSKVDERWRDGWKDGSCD
FGF22 binding: shifts melting point of recombinant human FGF22; recombinant FGF22 thermal shift, SYPRO orange fluorescence; percent of sucrose octasulfate shift, DMSO zero; calls only at 9.99 µM; Q9HCT0; actives 1.5% (n = 340,000); AID 651658;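 active = melting point raised past a set limit in the mean and every replicate; inconclusive = no clear call; three in four hits are not shown here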
Target sequence (Q9HCT0 whole entry, looked up): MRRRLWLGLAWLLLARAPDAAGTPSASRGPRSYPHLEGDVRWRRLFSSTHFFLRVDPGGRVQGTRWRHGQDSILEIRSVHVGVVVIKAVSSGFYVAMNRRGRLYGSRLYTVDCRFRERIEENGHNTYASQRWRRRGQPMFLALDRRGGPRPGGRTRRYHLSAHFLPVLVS
E coli growth: E. coli growth inhibition | Escherichia coli growth, OD600, 23 h; stronger effect = lower value | actives 0.21% (n = 330,000) | OD600 absorbance (concentration not given with the values) | AID 1053175;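 active = OD600 absorbance below the run mean of sample wells minus 3.6 SD, in any replicate, cut at about 0.56 in these data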;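 also: stock transfer was 300 nL into about 60 µL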
HNF4A DNA FP: change in binding of human HNF4 alpha to DNA. P41235. HNF4a-FITC DNA binding, fluorescence polarization, 1 h. activity change, % at 10 µM. actives 0.3% (n = 360,000). AID 1224865; in the data active = activity change above about 30%, passing the limit was not always enough;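 also: controls were the assay level and a saturating level of protein; the project sought stronger binding though the title names inhibitors; some compounds called inactive have numbers as strong as hits; positive values seem to mean higher polarization but the record does not say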
Ecoli rRNA inh OD600: also measured in Ecoli rRNA inh; calls as there; OD600 change, %; measured here: OD600 growth;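 optical density of the mix in the first replicate; 0 = DMSO median and -100 = no signal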
Ecoli rRNA inh RFP: recorded beside Ecoli rRNA inh, whose call it bears; RFP signal change, %; measured here: RFP humanized mutant strains;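 first replicate; 0 = DMSO median and -100 = no signal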
Active calls of the source: *; i = inactive; ? = inconclusive; nt = not tested or not shown. A portion of the library; rates above refer to the full screens.

SMILES	Vif A3G	MLL AF4-AF9 inh	Ecoli rRNA inh	Ecoli rRNA inh OD600	Ecoli rRNA inh RFP	ALR inh	FGF22 binding	E coli growth	HNF4A DNA FP
CN(c1ccc(OCc2ccc([N+](=O)[O-])cc2)cc1)S(=O)(=O)c1ccccc1	nt	-0.3	-1	6	-2.1	nt	i	0.7	-3.2
CCSC1=C(C#N)C(c2cccs2)C(C(=O)OC)=C(C)N1 (stereo not drawn)	76µM*	3.8	-52	-76	-28	nt	i	0.66	-4.8
Cc1ccn2c(Nc3ccccc3C)c(-c3ccncc3)nc2c1	-3%	nt	nt	nt	nt	nt	nt	0.63	5.2
COC(=O)C1=CN(Cc2ccc(OC)cc2)C=C(C(=O)OC)C1c1cc(OC)c(OC)c(OC)c1	1%	nt	nt	nt	nt	-7	nt	0.69	1.8
CC(=O)Nc1ccc(/C=C2\CCc3ccccc3C2=O)cc1	-2%	1.0	1	-21	3.3	-20	i	0.66	-1.3
Cc1cccc(C2c3[nH]c4ccccc4c3CCN2Cc2cccn2-c2ncccn2)c1 (stereo not drawn)	0%	31*	-5	-9	0.2	-3	i	0.73	3.2
CCOc1ccc(CCNC(=O)/C=C/c2ccco2)cc1OCC	nt	0.0	7	15	2.4	1	i	0.73	4.5
O=C1NC(Cc2ccc(O)cc2)c2nc3cc(Cl)ccc3c(=O)n2-c2cc(Cl)ccc21 (stereo not drawn)	nt	1.6	-5	-16	1.5	nt	i	nt	-4.5
Cc1ccc(NC(=O)Cn2cc([N+](=O)[O-])nc2C)cc1C	-5%	0.3	-20	-22	5.4	-23	i	0.64	1.1
CCC(=O)Nc1ccc2c(c1)C(=O)N(C)C[C@H](OC)[C@H](C)CN(C(=O)C1CCC1)[C@H](C)CO2	nt	2.4	-1	0	0.9	nt	i	nt	nt
CC(C)(C)NC(=O)NC(=O)CN1CCN(Cc2ccccc2)CC1	?	-2.9	16	13	1.4	0	i	0.72	-1.4
Cc1cc2c3c([nH]c2cc1S(=O)(=O)NCc1ccc(CN2CCCCCC2)o1)CCCC3=O	nt	1.8	6	1	-0.2	-8	i	0.66	3.8
COc1ccc(NC(=O)N(C)C[C@H]2OCc3ccccc3-c3c(n(C)c4ccccc34)C(=O)N([C@H](C)CO)C[C@@H]2C)cc1	nt	1.2	-6	-7	3.6	nt	i	nt	nt
COc1cccc(NC(=S)N(CCCN2CCCC2)Cc2cccn2Cc2ccc(Cl)cc2)c1	nt	14	-8	-18	26	-12	i	0.67	1.3
Cc1cc2c(nn1)CCC/C2=N\O	18%	nt	nt	nt	nt	3	nt	nt	-0.8
CCCCN(CC)CCCNC(=O)c1cn(C)c(=O)c2c1c1ccccc1n2C	17%	2.0	1	9	0.6	-8	i	0.68	-1.6
N#Cc1cc2c([nH]c1=S)CCCC2	?	nt	nt	nt	nt	14	nt	0.72	-3.4
C[C@H](CO)N1C[C@H](C)[C@@H](CN(C)CC2CCCC2)Oc2ncc(Br)cc2C1=O	nt	-1.9	5	5	0.0	nt	i	nt	nt
O=C(Nc1ccc2c(c1)OCCO2)c1ccc(Br)c(S(=O)(=O)N2CCOCC2)c1	?	nt	nt	nt	nt	nt	nt	0.75	-0.7
Cc1nn(-c2ccccc2)c2nc(C(F)F)cc(C(F)F)c12	-2%	-2.7	5	3	0.5	nt	i	0.68	-2.1
CN(Cc1cccc2cnccc12)C(=O)c1cc(COc2ccc(F)cc2Cl)on1	nt	0.0	-56	-77	-12	nt	i	0.68	5.2
Cc1ccc(S(=O)(=O)NC2CC2)cc1	1%	1.9	15	13	0.3	3	i	0.68	3.0
CCCn1c(SCC(=O)N2c3ccccc3CC2C)nnc1-c1ccco1 (stereo not drawn)	nt	nt	nt	nt	nt	-2	nt	0.71	-1.5
Cn1nnc2cc(C(=O)N3CCC(c4ccccc4)C3)ccc21 (stereo not drawn)	-6%	nt	nt	nt	nt	-6	nt	0.74	3.6
Cc1ccc(-n2c(C)nc3ncnc(-c4ccccc4)c32)cc1	2%	1.3	-7	4	1.7	1	i	0.73	-2.2
O=C(CCNS(=O)(=O)c1ccccc1)OCC(=O)c1ccc[nH]1	8%	0.5	4	8	2.4	-11	i	0.6	4.3
COc1cc2ncnc(N[C@H](C)c3ccccc3)c2cc1OC	-1%	nt	-13	-9	-2.2	nt	nt	0.62	-0.5
Cc1ccc(S(=O)(=O)N2CCC(C(=O)O)CC2)cc1	7%	-1.0	-1	2	-1.9	nt	i	0.63	2.0
NNC(=O)c1sccc1OCc1ccc(F)cc1	12%	-0.6	7	-16	-2.7	0	i	0.65	-0.6
Cc1ccc(NC(=O)CN2c3cccc4cccc(c34)S2(=O)=O)cc1	nt	1.4	4	-10	-1.9	nt	i	0.63	2.5
CCOC(=O)COn1c(-c2cccc(Cl)c2)nc2ccc([N+](=O)[O-])cc21	6%	nt	nt	nt	nt	-12	nt	0.73	0.5
COC(=O)c1c(C(=O)OC)c(-c2ccc(C)cc2)n2c1CS(=O)(=O)C2	23%	nt	nt	nt	nt	-6	nt	0.7	-1.1
Cc1cc(C)cc(NC(=S)NCCCN2CCOCC2)c1	-3%	-0.6	14	4	1.4	-5	i	0.7	2.4
CN(NS(=O)(=O)c1ccc(Cl)cc1)c1cnn(C)c(=O)c1Cl	-5%	0.5	4	-2	-3.3	0	i	0.65	0.0
COc1ccccc1NS(=O)(=O)c1ccc2[nH]c(=S)oc2c1	1%	-2.0	-4	-2	3.4	61	i	0.64	-4.7
N#Cc1c(F)cccc1NCc1cccs1	-3%	-5.5	nt	nt	nt	-13	i	0.62	4.9
CN(CC#CC(O)(c1ccccc1)c1ccccc1)C(C)(C)C	nt	-2.5	11	-14	-1.3	3	i	0.66	-4.0
C[C@@H]1CCCCO[C@@H](CN(C)C(=O)NC2CCCCC2)[C@@H](C)CN([C@@H](C)CO)C(=O)c2cc(NC(=O)CCCN(C)C)ccc2O1	nt	1.1	2	0	0.4	nt	i	nt	nt
NC(=O)c1ccc(NC(=O)COC(=O)c2c[nH]c3ccccc23)cc1	5%	2.4	3	6	-0.4	nt	i	0.7	0.2
COC(=O)C1=C(C)NC(=O)NC1c1ccc2c(c1)OCO2 (stereo not drawn)	78%	-0.8	21	11	4.5	5	i	0.72	0.2
CC(=C1SC(=S)NC1=O)c1ccc(Cl)c(O)c1	nt	?	-43	-71	-6.4	nt	i	nt	nt
COc1ccc(C2=NC(CO)(CO)CO2)cc1	-9%	-1.8	0	7	-2.3	-9	i	0.72	0.6
CCc1nc(N)c(C#N)c(-c2ccncc2)c1C	-2%	nt	nt	nt	nt	-12	nt	0.68	0.3
O=C1CCC(=O)N1CCC(c1ccc(F)cc1)c1ccco1 (stereo not drawn)	7%	3.1	31	10	6.4	nt	i	0.73	-2.7
CCOc1ccccc1CN1CCN(S(C)(=O)=O)CC1	28%	-37	12	5	-4.5	0	i	0.67	1.6
CC(C)n1cc(/C=N/Nc2ccc(C(=O)O)cc2)c2ccccc21	1%	8.3	-14	-18	-6.5	100*	i	nt	-1.7
CC(OC(=O)c1cc(S(=O)(=O)N2CCOCC2)ccc1F)C(=O)NCc1ccc2c(c1)OCO2 (stereo not drawn)	3%	3.0	0	0	1.0	4	i	0.66	-2.3
Cc1cc(NC(=O)CCOc2ccccc2)no1	nt	nt	nt	nt	nt	52	nt	0.69	-0.6
CN(C)c1ccc2c(c1)[C@H]1C[C@H](CC(=O)NCCN3CCCCC3)O[C@H](CO)[C@H]1O2	nt	18	10	15	-2.8	nt	i	nt	nt
Cc1c(Cl)cccc1N1C(=O)CC(Sc2ccccc2N)C1=O (stereo not drawn)	-3%	-2.6	1	2	-1.5	nt	i	nt	-0.8
COc1ccc(CCNC(=O)CN2C(=O)COc3ccc(S(=O)(=O)N4CCCC4)cc32)cc1OC	1%	-1.3	8	3	0.1	-2	i	0.71	-2.1
Cn1c(SCCN2CCCC2)nnc1C1CCN(S(=O)(=O)c2ccc(F)cc2)CC1	nt	-9.5	4	13	-3.2	nt	i	0.69	-3.5
CCc1c(C)nc2ncnn2c1NC1CCCc2ccccc21 (stereo not drawn)	nt	-1.0	-2	-11	-1.5	-7	i	0.7	1.2
CC(C)(C)c1nc[nH]c(=O)c1Br	2%	0.5	5	9	0.1	nt	i	0.7	-2.7
CCCCc1ccc(NC(=S)N2CCN(C(=O)c3ccco3)CC2)cc1	nt	-0.4	-10	-19	-2.6	-1	i	0.65	0.9
O=C(NC1CCCc2c1cnn2-c1ccccc1F)c1ccccn1 (stereo not drawn)	nt	-3.2	-4	-13	-1.9	-12	i	0.69	0.5
C[C@H](CO)N1C[C@H](C)[C@H](CN(C)CC2CCCCC2)Oc2ccc(NC(=O)Nc3ccc(F)cc3)cc2CC1=O	nt	0.2	-6	-52	33	nt	i	nt	nt
O=C(O)CCCCc1nc2ccccc2s1	0%	nt	nt	nt	nt	4	nt	0.64	-1.1
O=C(NC1CCCCCCC1)c1ccc2c(c1)OCO2	-10%	nt	nt	nt	nt	3	nt	0.68	1.4
C/C(CC(=O)Nc1ccc2c(c1)OCCO2)=N\NC(=O)c1cccc(O)c1	-2%	3.1	4	3	6.7	nt	i	nt	-2.8

Next part.
SMILES	Vif A3G	MLL AF4-AF9 inh	Ecoli rRNA inh	Ecoli rRNA inh OD600	Ecoli rRNA inh RFP	ALR inh	FGF22 binding	E coli growth	HNF4A DNA FP
OC(c1ccc(OCc2ccccc2)cc1)c1nnc(-c2ccccc2)o1 (stereo not drawn)	8%	nt	nt	nt	nt	-20	nt	0.72	-1.3
CCC(C)NC(=O)c1cnn2c(C)c3c(nc12)CCCC3 (stereo not drawn)	-2%	nt	nt	nt	nt	-20	nt	0.69	-0.7
C[C@@H]1CN([C@H](C)CO)C(=O)c2cc(-c3ccccc3)cnc2O[C@H]1CN(C)Cc1ccccn1	nt	-12	-4	-2	-1.9	nt	i	nt	nt
Cc1ccc(S(=O)(=O)Nc2ccc3c(c2)C(=O)N([C@H](C)CO)C[C@H](C)[C@@H](CN(C)C(=O)Nc2ccc(C(F)(F)F)cc2)OCCCC[C@@H](C)O3)cc1	nt	0.7	3	9	-2.8	nt	i	nt	nt
CN(C)S(=O)(=O)c1cccc(NC(=S)NN=C(Cc2ccccc2)Cc2ccccc2)c1	-8%	-2.4	0	8	0.7	0	i	0.67	2.0
COC(=O)CSc1nc2ccc(C)cc2cc1C#N	-19%	0.7	3	-6	-3.3	-8	nt	0.67	0.7
CC(=O)N/N=C(\C)C1COc2ccccc2O1 (stereo not drawn)	12%	-0.7	0	-1	-0.4	-17	i	nt	3.0
S=C(c1ccc(-c2ccc(Cl)cc2)o1)N1CCCCC1	-1%	nt	nt	nt	nt	39	nt	0.66	0.3
CCCC(=O)N1CC2(C1)CN(Cc1cccnc1)[C@@H](CO)c1[nH]c3cc(OC)ccc3c12	nt	-7.3	0	0	-1.6	nt	i	nt	nt

Three compounds out of the list above, sorted by the value under Ecoli rRNA inh OD600, low to high:
mol | Vif A3G | MLL AF4-AF9 inh | Ecoli rRNA inh | Ecoli rRNA inh OD600 | Ecoli rRNA inh RFP | ALR inh | FGF22 binding | HNF4A DNA FP
NNC(=O)c1sccc1OCc1ccc(F)cc1 | 12% | -0.6 | 7 | -16 | -2.7 | 0 | i | -0.6
CCc1c(C)nc2ncnn2c1NC1CCCc2ccccc21 (stereo not drawn) | nt | -1.0 | -2 | -11 | -1.5 | -7 | i | 1.2
Cc1cccc(C2c3[nH]c4ccccc4c3CCN2Cc2cccn2-c2ncccn2)c1 (stereo not drawn) | 0% | 31* | -5 | -9 | 0.2 | -3 | i | 3.2

High-throughput results as filed in PubChem BioAssay.
